Mtb hypoxia inh: PubChem AID 1159583; M. tuberculosis hypoxia-regulated fluorescent reporter, fluorescence; fluorescence inhibition, % (no concentration beside the values); 300,000 tested, 0.1% active;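 active = 35 to 45% if threefold the growth effect, above 45% if 1.5-fold the growth effect; inactive = the rest, general growth blockers included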;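 also: wells of about 50 µL received 100 nL stock; 0% = vehicle wells and 100% = reference inhibitor wells; whole bacteria with a GFP reporter of the hypoxia response; strong numbers were not always called active; many hits fall short of the cut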
ugtP null kill: growth inhibition of ugtP-null S. aureus, primary screen, RN4220 ugtP deletion, OD600; 330,000 tested, 0.54% active; growth inhibition, % (no concentration beside the values); AID 1259309, 2017; 16 h; some inactives read as strong as hits;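 active = z-score under -3 and OD600 up to 0.15 on both plates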;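 also: plate controls were untreated wells for no effect and antibiotic for full effect; wells of about 80 µL received 100 nL stock; the first replicate is given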
RN4220 kill: growth inhibition of S. aureus RN4220, primary screen, OD600; 16 h; inhibition, % (concentration not given with the values); 330,000 tested, 0.33% active; AID 1259311, 2017;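 active = z-score of -3 or lower and OD600 up to 0.18 on both plates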;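 also: plate controls were untreated cells for no effect and reference antibiotic for full effect; stock transfer was 100 nL into about 80 µL; one replicate is shown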
PrP UTR inh: inhibition of PrP 5' UTR reporter expression. 340,000 tested, 0.35% active. cell-based PrP 5' UTR mRNA reporter, plate reader. inhibition, % (test concentration not listed);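 active = every replicate at 50% or more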;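 also: 0 = median of the neutral control wells; tested in H4 reporter cells; numbers are from one replicate; inactives centre near -14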
Autofluor counter: compound fluorescence in toxin protease inhibitor counterscreen; compound autofluorescence counterscreen, microsphere flow cytometry; active compounds read high; fluorescence intensity (no concentration beside the values); 360,000 tested, 3.1% active;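 active = at least 3 SD above the mean of all compounds, about 16000 in these data; inconclusive = too few beads counted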;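 also: 100 nL of 1 mM stock went into each well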
BJeLR lethal: MLPCN primary cell-based screen for lethality selective to Ras in HRASV12 cells. 300,000 tested, 0.17% active. inhibition, % (no concentration beside the values). AID 1554, 2009. BJeLR (HRASV12) viability, CellTiter-Glo ATP luminescence, 48 h; reference of the scale not given here;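 active = replicate mean above 50%; inconclusive = above 50% but judged a plate artefact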;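 also: 50 nL library stock added to about 25 µL; numbers are from one replicate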
Mtb hypoxia inh growth: further read-out of Mtb hypoxia inh, marked with its call; growth inhibition, %; measured here: M. tuberculosis growth (absorbance);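 0% = vehicle and 100% = reference antibiotic; read after six days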
* hit, by the source's call; u = inconclusive; x = no result given.

1) O=C(CN(C(=O)CSc1nc2ccccc2o1)c1cccc(F)c1)NC1CCCCC1
2) CCOC(=O)C1CCCN(CCC(=O)Nc2cccc(F)c2)C1 (stereo unspecified)
3) COc1cc2cc3c(N)c(C(=O)Nc4sc(C)c(C)c4C#N)sc3nc2cc1OC
4) CCC1Oc2ccccc2N(Cc2ccccc2C)C1=O (stereo unspecified)
5) O=C(NCCOc1ccccc1)C1CCC(=O)N(Cc2ccc(Cl)cc2)C1 (stereo unspecified)
6) O=C(NC(=S)Nc1ccccc1N1CCCC1)c1ccc(F)cc1
7) OCCC1CN(CCCc2ccccc2)CCN1Cc1ccccc1 (stereo unspecified)
8) CC(=O)c1ccc(OCCCC(=O)Nc2cccc(S(=O)(=O)N3CCCCCC3)c2)cc1
9) CCCCc1ccc(NC(=S)N2CCN(C(=O)OCC)CC2)cc1
10) Cc1ccc(Cn2nnc3c(=O)[nH]c(C4CCN(S(=O)(=O)c5ccc(C)cc5)CC4)nc32)cc1

assay / compound,1,2,3,4,5,6,7,8,9,10
Mtb hypoxia inh growth,5,8,3,8,-2,-2,0,5,0,0
PrP UTR inh,-19,-19,-6,-35,-34,-23,-28,-11,8,-11
ugtP null kill,0,-1,-7,19,7,79,1,11,2,26
Mtb hypoxia inh,8,3,2,12,6,0,-9,6,0,3
BJeLR lethal,-9,1,2,9,3,0,-4,x,-1,x
Autofluor counter,10229,10285,8703,8077,4401,2014,4124,4086,2814,11472
RN4220 kill,-0.4,1.2,8.2,1.4,-1.9,4.6,2.7,5.1,2.4,1.6

11) COc1ccc(NS(=O)(=O)c2ccc(C(=O)OC(C)C(=O)N3CCOCC3)cc2)cc1 (stereo unspecified)
12) CCC(=O)c1cn(CC(=O)Nc2cccc(C)c2C)c2ccccc12
13) Cc1cc(C)c2[nH]c(=O)c(CN(Cc3ccc4c(c3)OCO4)Cc3nnnn3C3CCCC3)cc2c1
14) CCn1cc(/C=C(\NC(=O)c2cc(OC)c(OC)c(OC)c2)C(=O)NCCN2CCOCC2)c2ccccc21
15) Cn1ccc(C(=O)N2CCCc3ccccc32)n1
16) CSCc1ccc(C(=O)NCC(c2cccs2)N2CCOCC2)cc1 (stereo unspecified)
17) CS(=O)Cc1cc(Sc2ccccc2)nc(-c2cccnc2)n1 (stereo unspecified)
18) N#Cc1c2n(c3c(=O)n(Cc4ccc(Cl)cc4)cnc13)CCCC2
19) Cc1cc(NC(=O)CCn2c(=O)sc3ccccc32)no1
20) C=CCOC(=O)C1=C(C)NC(SCC(=O)Nc2ccc(C)c(Cl)c2)=C(C#N)C1c1ccco1 (stereo unspecified)

assay / compound,11,12,13,14,15,16,17,18,19,20
Mtb hypoxia inh growth,2,2,3,3,x,0,8,x,4,x
PrP UTR inh,-9,-21,-8,-13,-11,-19,-20,-17,-14,-9
ugtP null kill,2,2,-7,3,3,8,4,3,-3,3
Mtb hypoxia inh,6,7,-5,5,x,0,9,x,18,x
BJeLR lethal,1,-8,-7,-10,5,-4,-5,1,-4,11
Autofluor counter,5614,3248,9555,5604,3810,u,2634,4305,10145,3765
RN4220 kill,-2.0,2.1,3.0,3.0,5.2,0.9,-1.7,-1.2,2.4,3.3

21) CC1CN(C(C)CO)C(=O)c2cc(NC(=O)C3CCCCC3)ccc2OC1CN(C)S(C)(=O)=O (stereo unspecified)
22) CS(=O)(=O)c1ccc(C(=O)Nc2ccc(N3CCOCC3)cc2)c(Cl)c1
23) CCc1ccc(CN(C)C(=O)c2cc(COc3cccc(C(F)(F)F)c3)on2)nc1
24) CCOc1cc(/C=N/NC(=O)c2ccc(NC(=O)C3CC3)cc2)ccc1O
25) COc1ccccc1C(=O)Nc1cc(C)on1
26) COc1ccc(S(=O)(=O)N2CCC(C(=O)N3CCCCCC3)CC2)cc1
27) CCNC(=S)NN=Cc1ccc(OCCOc2ccccc2C)cc1
28) COc1ccc(C=NNC(=O)c2ccco2)cc1COc1ccc(F)cc1
29) Cc1ccc2[nH]c3c(c2c1)CN(C(=O)CN1CCSCC1)CC3
30) CC(CC(=O)Nc1cc([N+](=O)[O-])ccc1Cl)c1ccccc1 (stereo unspecified)

assay / compound,21,22,23,24,25,26,27,28,29,30
Mtb hypoxia inh growth,5,0,1,x,-9,x,-6,-8,5,4
PrP UTR inh,x,-35,-2,-19,-45,-8,x,x,-19,-13
ugtP null kill,9,11,-9,x,8,-1,-2,1,-9,1
Mtb hypoxia inh,19,5,1,x,8,x,-1,-9,12,6
BJeLR lethal,x,2,1,1,-5,5,x,x,5,4
Autofluor counter,x,4534,5576,6133,3484,2627,x,x,x,4543
RN4220 kill,4.2,3.9,1.1,x,1.8,-2.0,-3.5,-0.7,-14,3.6

31) COc1cc(OC)cc(C(=O)NC(=S)NCc2ccco2)c1
32) CN(CC(=O)Nc1c(Cl)cccc1Cl)C(=O)c1cc(-c2cccs2)nn1-c1ccccc1
33) O=C(NCc1ccc2c(c1)OCO2)C1COc2ccccc2O1 (stereo unspecified)
34) O=C(NCCOC(=O)C1COc2ccccc2O1)C1COc2ccccc2O1 (stereo unspecified)
35) COc1cccc(C(=O)N2CCN(Cc3ccc(OC)cc3OC)CC2)c1
36) CCOC(=O)c1[nH]c(C)c(/C(O)=C2\C(=O)C(=O)N(CCN(C)C)C2c2ccco2)c1C (stereo unspecified)
37) COc1ccccc1N1CCN(N=Cc2cc(Br)ccc2F)CC1
38) CCOC(=O)N1CCC(NC(=O)CSCc2nc(-c3sccc3C)oc2C)CC1
39) CCOC(=O)C1CCN(S(=O)(=O)c2ccc3c(c2)NC(=O)C(C)S3)CC1 (stereo unspecified)
40) O=C1c2ccccc2CN1CCSC(=S)N1CCOCC1

assay / compound,31,32,33,34,35,36,37,38,39,40
Mtb hypoxia inh growth,-6,x,x,3,1,x,-2,3,-6,-6
PrP UTR inh,3,-29,-17,-6,-3,-8,x,-4,-12,-76
ugtP null kill,12,x,5,0,12,x,71,0,-3,2
Mtb hypoxia inh,1,x,x,-6,15,x,-6,6,0,-7
BJeLR lethal,3,11,-2,1,-7,-5,x,-2,10,-7
Autofluor counter,16948*,4447,2698,5979,3372,3006,x,4242,5292,7959
RN4220 kill,1.4,x,-0.9,2.6,6.2,x,0.2,5.3,2.6,4.5

Single records, from the list above. Order of screens: Mtb hypoxia inh growth, PrP UTR inh, ugtP null kill, Mtb hypoxia inh, BJeLR lethal, Autofluor counter, RN4220 kill
COc1ccccc1N1CCN(N=Cc2cc(Br)ccc2F)CC1 reads -2, x, 71, -6, x, x, 0.2
COc1cccc(C(=O)N2CCN(Cc3ccc(OC)cc3OC)CC2)c1 reads 1, -3, 12, 15, -7, 3372, 6.2
O=C1c2ccccc2CN1CCSC(=S)N1CCOCC1 reads -6, -76, 2, -7, -7, 7959, 4.5

Continued.
41) Nc1nonc1-n1nnc(C(=O)N/N=C/c2cccnc2)c1-c1cccs1
42) N#Cc1ccc(OCC(=O)NNC(=O)C2CCCCC2)cc1
43) COCCNC(=O)C(c1ccc(F)cc1)N(Cc1ccco1)C(=O)CCC(=O)Nc1nccs1 (stereo unspecified)
44) COC(=O)c1ccccc1NC(=O)CCCn1nc([N+](=O)[O-])c(Br)c1C
45) COC(=O)CC1COc2ccccc2N1C(=O)c1cccc(Cl)c1 (stereo unspecified)
46) O=C(NCc1csc(-c2cccs2)n1)c1ccccc1
47) Cc1nn(-c2nc3ccccc3s2)c(N)c1-c1ccccc1
48) O=C(COc1cccc(-n2cnnn2)c1)N1CCOCC1
49) CCOc1ccc(/C=C/C(=O)Nc2ccc(OC)cc2[N+](=O)[O-])cc1
50) O=C(O)c1ccc(C2(c3ccc(C(=O)O)cc3)OC(=O)c3ccccc32)cc1

assay / compound,41,42,43,44,45,46,47,48,49,50
Mtb hypoxia inh growth,x,x,x,7,-1,0,9,1,x,7
PrP UTR inh,-19,-8,-15,-3,-7,-20,-111,-2,-6,-6
ugtP null kill,x,8,2,12,2,1,5,-1,6,4
Mtb hypoxia inh,x,x,x,0,0,-7,3,-3,x,-13
BJeLR lethal,-7,x,-7,-7,8,-15,4,-7,3,3
Autofluor counter,5027,2902,4559,3384,16041,3366,12603,8769,2563,4269
RN4220 kill,x,3.9,2.4,5.5,4.1,12,1.2,-0.5,-3.4,3.0

51) COc1ccc(-c2nc3ccccc3s2)cc1NC(C)=O
52) Cc1cc(OCC(O)CNC(C)(C)C)ccc1Cl (stereo unspecified)
53) COc1ccc2[nH]cc(CCNC(=O)Cc3c(F)cccc3Cl)c2c1
54) O=C1CCC(C(=O)N2CCSCC2)CN1Cc1ccc(Cl)cc1 (stereo unspecified)
55) Cc1c(Cl)cccc1NC(=O)CCN1C(=O)C2CC=CCC2C1=O (stereo unspecified)
56) O=C(c1ccc([N+](=O)[O-])c(CS(=O)(=O)c2ccc(Cl)cc2)c1)N1CCCCC1
57) Cc1c(C(=O)OCC(=O)N2CCC(C)CC2)oc2ccccc12
58) CNC(=O)C1(C)C=CC2(CCCCC2)N1C(=O)OC (stereo unspecified)
59) COc1cc(NC(=O)CS(=O)(=O)c2ccccc2)cc(OC)c1OC
60) CCOc1ccc(N(C(C)C(=O)Nc2cccnc2)S(C)(=O)=O)cc1 (stereo unspecified)

assay / compound,51,52,53,54,55,56,57,58,59,60
Mtb hypoxia inh growth,2,5,0,-2,11,-2,10,2,5,2
PrP UTR inh,-124,-10,-23,-16,-12,-8,-25,-10,-20,-20
ugtP null kill,1,2,10,12,0,1,4,0,-9,1
Mtb hypoxia inh,10,5,6,-3,10,6,8,5,3,0
BJeLR lethal,-15,2,-6,10,5,0,2,1,-1,5
Autofluor counter,3079,4305,3534,4449,5209,2811,5230,3786,3334,4649
RN4220 kill,-1.6,1.0,2.9,6.9,0.4,0.9,4.6,1.8,-16,0.9

61) O=C(Cn1c(=O)oc2ccccc21)NCc1ccco1
62) O=C(N=Nc1c(O)n(Cc2ccccc2)c2ccccc12)c1ccncc1
63) CC1(c2ccc(NC(=O)c3ccccc3F)cc2)CC1(Cl)Cl (stereo unspecified)
64) Cc1cccc(C)c1NC(=O)CS(=O)CC(=O)N1CCN(c2ccccc2)CC1 (stereo unspecified)
65) COc1ccccc1CCc1nnc(CCC(=O)NC(C)Cc2cccc(C)n2)o1 (stereo unspecified)
66) CCC1C=C(c2ccccc2)C=CN=C1N(CC)CC (stereo unspecified)
67) COc1ccc(C(C)=NNC(=O)c2ccncc2)cc1
68) CC(C)[C@@H](C(=O)OCC(=O)c1ccc2c(c1)NC(=O)CO2)N1C(=O)c2ccccc2C1=O
69) CN(C(=S)Nc1ccccc1)c1ccccc1
70) CCNC(=S)N1CCN=C1Nc1nc(C)cc(C)n1

assay / compound,61,62,63,64,65,66,67,68,69,70
Mtb hypoxia inh growth,x,6,11,-5,9,2,x,4,9,4
PrP UTR inh,-7,4,-67,-10,-9,-57,x,-21,-14,-33
ugtP null kill,0,9,7,4,3,0,14,-3,9,0
Mtb hypoxia inh,x,-10,7,7,10,0,x,14,7,11
BJeLR lethal,-2,-2,-4,1,0,-7,x,x,-3,-9
Autofluor counter,3776,4553,3433,4302,4237,7187,x,3884,2494,4547
RN4220 kill,2.8,1.2,2.0,4.4,3.8,4.2,4.9,4.2,4.6,1.8

Fetched by compound from above, two records:
61) O=C(Cn1c(=O)oc2ccccc21)NCc1ccco1
65) COc1ccccc1CCc1nnc(CCC(=O)NC(C)Cc2cccc(C)n2)o1 (stereo unspecified)

assay / compound,61,65
Mtb hypoxia inh growth,x,9
PrP UTR inh,-7,-9
ugtP null kill,0,3
Mtb hypoxia inh,x,10
BJeLR lethal,-2,0
Autofluor counter,3776,4237
RN4220 kill,2.8,3.8

Continued:
71) N#Cc1c(-c2cccs2)cc(-c2cccnc2)nc1N
72) O=S(=O)(c1ccc2[nH]c3c(c2c1)CCCC3)N1CCCCC1
73) CCn1c(COc2cccc(OC)c2)nnc1SCC(=O)NCC1CCCO1 (stereo unspecified)
74) Cn1c(=O)c2c(nc(N/N=C3\CCCc4ccccc43)n2Cc2ccc(F)cc2)n(C)c1=O
75) O=C(OCC#CCSc1nc2ccccc2o1)c1ccco1

assay / compound,71,72,73,74,75
Mtb hypoxia inh growth,10,3,1,x,x
PrP UTR inh,-10,-20,-8,-12,-34
ugtP null kill,-4,-53,-10,x,-2
Mtb hypoxia inh,4,-11,14,x,x
BJeLR lethal,3,0,-4,5,-5
Autofluor counter,x,x,3870,2279,22148*
RN4220 kill,4.8,-7.2,3.3,x,8.9

High-throughput results (PubChem)
